HPGD inh: qHTS Assay for Inhibitors of HPGD (15-Hydroxyprostaglandin Dehydrogenase); 15-hydroxyprostaglandin dehydrogenase [NAD(+)] (Homo sapiens), P15428; purified HPGD, NADH fluorescence kinetic, PGE2 substrate; Potency, µM, for inactives: at the top dose activity change, negative = inhibition, most hits filed as inhibitors; actives 4.3% (n = 150,000); AID 894, 2007; active = well fitted inhibition curve with a large enough effect (not every such curve was filed as active); inconclusive = small, poorly fitted or top-dose-only effect, or another doubt; inactive = no such curve, though single readings can be large or run the other way;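 note: top concentration of the series not given in the record; plate controls included wells without enzyme; inactives centre near -10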
Target sequence (P15428 whole entry, looked up): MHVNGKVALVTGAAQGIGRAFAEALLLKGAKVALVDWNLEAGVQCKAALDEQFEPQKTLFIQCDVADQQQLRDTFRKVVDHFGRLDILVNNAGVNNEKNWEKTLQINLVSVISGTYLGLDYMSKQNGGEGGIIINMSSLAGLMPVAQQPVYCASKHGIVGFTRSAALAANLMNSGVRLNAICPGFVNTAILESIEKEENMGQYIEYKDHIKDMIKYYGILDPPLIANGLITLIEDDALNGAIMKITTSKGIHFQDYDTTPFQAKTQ
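20 nM HPGD preincubated 15 min at room temperature with compound in 50 mM Tris-HCl pH 8, 0.01% Tween 20. Started with 1 mM NAD+ and 30 uM prostaglandin E2; NADH fluorescence (360/450 nm) read 5 times over 30-s intervals, last minus first.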
Numbers without * were called inactive; ? = inconclusive. % is set by controls: 0 for no effect and ±100 for the full control effect; potency is the fitted concentration of half-maximal effect. An excerpt. The share of hits here may be higher or lower than overall.

SMILES	HPGD inh
CC(C)c1ccc(/C=C(/C#N)c2nnc(NC(=O)c3ccccc3)s2)cc1	?
O=C(O)/C=C\C(=O)Nc1ccc2c(c1)-c1ccccc1C2	-13%
O=C(CN(Cc1ccco1)C(=O)Cn1nnc(-c2ccc(F)cc2)n1)NC1CCCC1	-6%
CC1CCc2nc(NC(=O)CN3CCN(c4ccccc4)CC3)sc2C1 (stereo not given)	-1%
Cc1[nH]c2ccccc2c1C(=O)COC(=O)c1cccc(S(=O)(=O)N2CCCCC2)c1	-10%
CCn1c(-c2ccccc2)csc1=Nc1ccc(S(=O)(=O)O)cc1	-17%
COc1ccc(S(=O)(=O)CCC(=O)Nc2c(C)n(C)n(-c3ccccc3)c2=O)cc1	-4%
N/C(=N\OC(=O)CCC1CCCCC1)c1ccccn1	-4%
CCC(c1nnc(SCc2nc3ccccc3s2)n1Cc1ccccc1)N(C)C (stereo not given)	-13%
CN(C)S(=O)(=O)c1cccc(NC(=O)c2ccc(OC(F)(F)F)cc2)c1	0%
CCNC(=O)c1cc(Cl)ccc1OC	-10%
O=C(O)C[C@H](Cc1ccccc1Cl)C(=O)O	-3%
COc1ccc(/C(C)=N\Nc2nc(-c3ccccc3)cc(=O)[nH]2)cc1	?
O=[N+]([O-])c1ccccc1/C=N/n1c(-c2cccnc2)n[nH]c1=S	?
Cc1ccc(Cl)cc1N1CCN(Cc2nc3c(c(=O)[nH]c(=O)n3C)n2Cc2ccccc2F)CC1	-2%
COCCNC(=O)CNC(=S)N(Cc1ccccc1)Cc1cccnc1	-6%
Cc1cc(N2C(=O)C(=O)/C(=C(/O)c3ccc(Cl)cc3)C2c2cccc(Br)c2)no1 (stereo not given)	-1%
CSCCC(NC(=O)OC(C)(C)C)C(=O)NC(C(=O)NC(CC(C)C)C(N)=O)C(C)C (stereo not given)	-19%
CNc1nc(SC)nc2ccsc12	-11%
Cc1nn(-c2ccccc2)c(C)c1/C=C/C(=O)OCC(=O)Nc1ncc(C(F)(F)F)cc1Cl	?
CN(C)/C=C1\C=C(c2ccccc2)OC1=O	-28%
Cc1nc2ccccc2c2oc(C(=O)N3CCN(C4CCCCC4)CC3)cc12	-11%
CCOc1ccc(OCC)c(NC(=O)C2COc3ccccc3O2)c1 (stereo not given)	-12%
CCOc1ccccc1NC(=O)c1ccoc1C	-8%
CC(=O)C1CCC2C3CCC4=CC(=O)CC[C@@]4(C)C3CC[C@]12C (stereo not given in full)	-2%
Cc1cc(C)n(CC2CC(=O)N(c3ccc(C)c(Cl)c3)C2=O)n1 (stereo not given)	-8%
CCN=c1scc(C)n1/N=C/c1ccc(O)c(O)c1O	7.1µM*
COCCn1c(-c2ccc(Cl)cc2Cl)nc2c(c(=O)c3ccccc3n2C)c1=O	-17%
CCOc1ccc2nc(NC(=O)CSC3=NCCS3)sc2c1	-21%
CCOC(=O)C1C(=O)NC(SC)=C(C#N)C1c1ccccc1F (stereo not given)	-5%
Cn1c(=O)c2c(nc(CN3CCC(C(N)=O)CC3)n2Cc2ccccc2Cl)n(C)c1=O	0%
Cc1ccc(S(=O)(=O)N2CCOCC2)cc1C(=O)OCC(=O)Nc1ccc2c(c1)OCO2	-6%
Cc1cccc(OCCCCCn2ccnc2)c1	0%
Cc1nc(NCC2CCCO2)c2oc3ccccc3c2n1 (stereo not given)	-15%
O=C(NCc1ccc(F)cc1)C1CCC(=O)N1CCc1ccccc1 (stereo not given)	-2%
COc1ccccc1NC(=O)C(C)N1CCN(C/C=C/c2ccccc2)CC1 (stereo not given)	-9%
CC(C)(C)S(=O)(=O)c1ccccc1C(=O)O	-7%
Cc1ccc(S(=O)(=O)N[C@H](C(=O)N2CCC(C(=O)N3CCC[C@H]3C(=O)O)CC2)C(C)C)cc1	-4%
CCNC(=S)NNC(=O)c1cc(-c2cccc(C)c2)nc2ccccc12	-9%
CCN(CC)CCCCn1c(-c2ccccc2)nc2c(N3CCOCC3)nc(C)nc21	?

For reference, some entries already given.
SMILES	HPGD inh
CN(C)/C=C1\C=C(c2ccccc2)OC1=O	-28%
Cc1nc2ccccc2c2oc(C(=O)N3CCN(C4CCCCC4)CC3)cc12	-11%
CCOc1ccc(OCC)c(NC(=O)C2COc3ccccc3O2)c1 (stereo not given)	-12%
CCOc1ccccc1NC(=O)c1ccoc1C	-8%
CC(=O)C1CCC2C3CCC4=CC(=O)CC[C@@]4(C)C3CC[C@]12C (stereo not given in full)	-2%
Cc1cc(C)n(CC2CC(=O)N(c3ccc(C)c(Cl)c3)C2=O)n1 (stereo not given)	-8%
CCN=c1scc(C)n1/N=C/c1ccc(O)c(O)c1O	7.1µM*
COCCn1c(-c2ccc(Cl)cc2Cl)nc2c(c(=O)c3ccccc3n2C)c1=O	-17%
CCOc1ccc2nc(NC(=O)CSC3=NCCS3)sc2c1	-21%
CCOC(=O)C1C(=O)NC(SC)=C(C#N)C1c1ccccc1F (stereo not given)	-5%
Cn1c(=O)c2c(nc(CN3CCC(C(N)=O)CC3)n2Cc2ccccc2Cl)n(C)c1=O	0%
Cc1ccc(S(=O)(=O)N2CCOCC2)cc1C(=O)OCC(=O)Nc1ccc2c(c1)OCO2	-6%
Cc1cccc(OCCCCCn2ccnc2)c1	0%
Cc1nc(NCC2CCCO2)c2oc3ccccc3c2n1 (stereo not given)	-15%
O=C(NCc1ccc(F)cc1)C1CCC(=O)N1CCc1ccccc1 (stereo not given)	-2%

New compounds follow.
SMILES	HPGD inh
O=C(c1ccccc1)c1cc2ccccc2o1	-18%
COc1ccccc1CN1CC(C(=O)NCc2cccnc2)CC1=O (stereo not given)	-20%
c1nnc(NCNc2nncs2)s1	1%
CSC1=C(C#N)C(c2ccccc2Cl)C2=C(N1)c1ccccc1C2=O (stereo not given)	?
CN1c2ccccc2C2(C)CCCC3=Cc4cccc([N+](=O)[O-])c4OC312 (stereo not given)	-11%
C=CCN=C(NC#N)SCCc1ccccc1	-9%
O=C(NCc1cccnc1)C1c2ccccc2C(=O)N1C1CCCCCC1 (stereo not given)	-5%
O=S(=O)([O-])CCC[n+]1c(SCCCS(=O)(=O)O)sc2ccc(Cl)cc21	?
COCCCN1C(=O)c2ccc(C(=O)Nc3ccc(OC)cc3OC)cc2C1=O	-3%
N/C(=N\c1nc2ccccc2o1)NC(=O)C(Cc1ccccc1)N1C(=O)c2ccccc2C1=O (stereo not given)	-11%
O=[N+]([O-])c1ccc(C2CCCC/C2=N/OCc2ccccc2F)c([N+](=O)[O-])c1 (stereo not given)	-10%
Cc1nn(Cc2ccccc2)c(=O)c2nn(-c3ccc(Cl)cc3)c(C)c12	-16%
COC(=O)c1ccc(C(=O)OC)c(NC(=O)COC(=O)C2CCC(C(C)(C)C)CC2)c1 (stereo not given)	-22%
COC(=O)c1c(NC(=O)C2c3ccccc3Oc3ccccc32)sc(C)c1C	-22%
CCn1c(CNc2ccccc2Cl)nnc1SCC(=O)OC1CCCCC1	-24%
Cc1ccccc1NC(=O)CN1C(=O)C2C3CC(C(Br)C3Br)C2C1=O (stereo not given)	14µM*
O=C(Cn1cnc2c(cnn2-c2ccccc2)c1=O)OCc1ccccc1	-11%
CCOC(=O)CSC1=C(C#N)C(c2ccccc2)C(C(C)=O)=C(C)N1 (stereo not given)	-21%
CCOc1cc(Cl)c(NC(=O)c2ccco2)cc1OCC	?
O=S(=O)(O)c1ccc(-c2nnc(-c3ccccn3)nc2-c2ccc(S(=O)(=O)O)o2)o1	-5%
Clc1ccc2nc(CN3CCCCCC3)cn2c1	-14%
O=C(CCc1ccc(S(=O)(=O)NCc2ccccc2)cc1)NCC1CCCO1 (stereo not given)	-6%
O=C(CSc1ccccn1)N1CCN(c2cccc(Cl)c2)CC1	?
CC(=NCCc1ccccc1)C1=C(O)COC1=O	-7%
CCOc1cc(C(=S)N2CCCC2)ccc1OCC(=O)Nc1c(C)cc(C)cc1C	-13%
CCCn1c(=C(C#N)C#N)s/c(=C2\C=Cc3ccccc3N2CC)c1=O	-9%
C[C@]12CCC3c4ccc(OC(=O)c5ccccc5)cc4CCC3C1CCC2=O (stereo not given in full)	-11%
O=C(Cn1c(C(=O)NCCCN2CCOCC2)cc2sccc21)c1ccccc1	1%
CN1CCN(CCCNC(=O)c2ccc3c(c2)N(Cc2ccccc2)CCS3)CC1	?
COc1ccc(NC(=S)Nc2ccccc2F)c(OC)c1	0%
CC(C)CCn1c(S(=O)(=O)O)nc2ccccc21	-4%
CCCCn1c(SCC(N)=O)nc2ccc(N3CCOCC3)cc2c1=O	?
COc1c(S(=O)(=O)N2CCN(c3ccc(F)cc3)CC2)ccc(Cl)c1Cl	-6%
COc1ccc(CCn2c(C(C)C)nc3c(c(=O)c4ccccc4n3C)c2=O)cc1	-29%
CCOc1cc(CNCCO)c(Cl)cc1OCC(=O)NCCc1ccccc1	-6%
Cc1cccc(NC(=O)NCCc2c[nH]c3ccccc23)c1	-15%
CC(=O)N1C(=O)C(=C2C=C(C)OC(C)=C2)c2ccccc21	-9%
CCN1CCC2(CC1)C(C#N)=C(N)Oc1c2sc2nc(C)cc(C)c12	-5%
CCCc1[nH]nc2c1C(/C(C)=C/c1ccccc1)C(C#N)=C(N)O2 (stereo not given)	-9%
COCCN1C(=O)c2oc3ccccc3c(=O)c2C1c1cccc(O)c1 (stereo not given)	-10%
O=C(CCN1C(=O)C2C3C=CC(C3)C2C1=O)Nc1ccc2ncccc2c1 (stereo not given)	-24%
COC(=O)Cc1n[nH]c(=O)c2ccccc12	-4%
COc1ccc(C(O)C(CC(=O)NCCCOC(C)C)C(=O)NCCCOC(C)C)cc1OC (stereo not given)	-8%
COC(=O)c1ccc2c(=O)[nH]c(CSc3nnc(C(F)(F)F)n3C)nc2c1	-20%
Cc1cc([N+](=O)[O-])ccc1NCc1ccc2ccccc2c1	-12%
COc1ncc2nc(CCc3ccccc3)c(=O)n(C3CC3)c2n1	-20%
CC(C)(C)c1cc(CCC(=O)NNC(=O)c2ccco2)cc(C(C)(C)C)c1O	-12%
CCC(Sc1nccn1C)C(=O)Nc1cccc2ccccc12 (stereo not given)	-6%
COc1ccc(N(CC(=O)N/N=C/c2ccco2)S(=O)(=O)c2ccccc2)cc1	-6%
CCCCn1cnc(C(=O)OCC)c1N	-1%
Cc1cc(Nc2ccc(C(C)C)cc2)n2ncnc2n1	-7%
COc1cc(/C=C(/C(=O)c2cccs2)c2nc3ccccc3[nH]2)cc(OC)c1O	?
O=C(O)CCSSCCC(=O)O	-5%
CC(C)N1CCc2c(sc(NC(=O)c3ccc(S(=O)(=O)N4CCOCC4)cc3)c2C(N)=O)C1	-12%
Cn1nc(C(F)(F)F)c(C(=O)Nc2ccc(F)cc2F)c1Sc1cccc(Cl)c1	-21%
COC(=O)c1ccc(NC(=O)CSc2ccccn2)cc1	11µM*
O=C(NCCc1ccccc1)c1cccc(Br)n1	-28%
CN1CCN(NC(=O)c2cccc3ccccc23)CC1	-3%
CCN(CC)S(=O)(=O)N1CCC(C(=O)NC2CCCC2)CC1	-6%
Cc1onc(-c2ccccc2)c1C(=O)N1CCCc2ccccc21	-17%

(list continues)
SMILES	HPGD inh
Cc1ccc(NC(=O)NNC(=O)c2cccs2)cc1	-9%
COCCNC(=O)c1ccccc1-c1ccccc1C(=O)O	3%
Cc1ccc2nc(NC(=O)c3ccc(-c4nc5ccccc5s4)s3)sc2c1	-27%
CC(=O)c1c(C)[nH]c(C(=O)OCC(=O)Nc2cc(S(=O)(=O)N3CCCCC3)ccc2C)c1C	-12%
CCCOc1ccccc1C1NC(=O)NC(C)=C1C(=O)OCc1ccccc1 (stereo not given)	-27%
COc1ccc(CNC(=O)Nc2ccc(OC)cc2)cc1	-3%
Cc1cc(Nc2ccccc2)n(C(=O)c2ccc(N)cc2)n1	-14%
Clc1ccc2[nH]c(-c3ccccc3)cc2c1	-22%
CS(=O)(=O)N(CC(=O)Nc1ccccc1Sc1ccccc1)C1CCCCC1	-26%
O=C(CN1C(=O)C2CC=C(Cl)CC2C1=O)NCc1ccccc1 (stereo not given)	-5%
O=c1c2ccccc2nc2n1C(CSc1ccc(Br)cc1)CN2 (stereo not given)	-14%
C(=C\c1nnc2c3ccccc3ncn12)/c1ccccc1	-30%
CN1C(=O)C2(C(C#N)=C(N)Oc3c2oc(CO)cc3=O)c2ccccc21 (stereo not given)	-1%
COc1cc(OC)c(N(C)S(=O)(=O)c2cccc(C(=O)OCC(=O)c3c[nH]c4ccccc34)c2)cc1Cl	-8%
Cc1cc(C)c(S(=O)(=O)Nc2ccc(-c3cn4ccccc4n3)cc2)c(C)c1	?
CC(=O)CCS(=O)(=O)c1ccc(NC(C)=O)cc1	-5%
Cc1nc2ccc(NC(=O)N3CCSCC3)cc2nc1C	?
CC(C)(C)c1ccc(C(=O)N2CCCCCC2=O)cc1	-19%
Cn1cnnc1SCC(=O)Nc1ccc2nc(SCc3ccccc3F)sc2c1	-24%
CC(NC(=O)C(=O)NCCC1=CCCCC1)c1ccccc1 (stereo not given)	-6%
O=C(O)c1ccc(Cl)c(NC(=O)C2CCCN2S(=O)(=O)c2cccc3nsnc23)c1 (stereo not given)	-3%
CCOC(=O)c1ccc(-c2cccc(-c3cc(=O)oc4cc(OC)cc(OC)c34)c2)cc1	-7%
Cc1cccc(C)c1NC(=O)C(c1cccs1)N(Cc1ccco1)C(=O)Cn1nnc2ccccc21 (stereo not given)	-10%
CCSC1=C(C#N)C(c2ccccc2C)CC(=O)N1 (stereo not given)	0%
Cc1csc(NC(=O)CSc2ncnc3c2cnn3-c2ccccc2Cl)n1	-11%
CC(C)C(=O)N(Cc1cc2ccccc2[nH]c1=O)C(C)(C)C	-13%
O=S(=O)(Nc1ccc2nc(-c3ccco3)[nH]c2c1)c1ccccc1	-18%
CCN(CC)C(=O)c1ccc(Nc2nnc(C)c3ccccc23)cc1	2.2µM*

Assay outcomes deposited in PubChem BioAssay by National Center for Advancing Translational Sciences (NCATS).
